Bm FixLJ act: activators of Burkholderia fixLJ two-component system, primary screen, B. multivorans, GFP reporter | B. multivorans fixK-promoter GFP reporter, 18 h; active compounds read high | AID 1918990, 2023 | 29,000 compounds, 0.3% hits | z-score (test concentration not listed);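 active = replicate mean overnight rise in green fluorescent reporter signal, 3 or more SD over negative controls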;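 note: score is relative to vehicle wells of the plate; 300 nL library stock went into each well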
Numbers without * were called inactive; & = joins results of further samples. An excerpt; rates above refer to the full screens.

SMILES	Bm FixLJ act
CCOc1ccc(-n2c(-c3ccc(Br)cc3)cc3c2CC(C)(C)CC3=O)cc1	0.34
CCOc1ccc(Nc2oc(/C=C/c3ccc(OC)c(OC)c3)nc2C#N)cc1	-1.01
CCCS(=O)(=O)c1c(Nc2ccccc2C)sc(C(=O)c2ccccc2)c1N	0.44
CN(CC(=O)N1CCC(c2nc(N)n[nH]2)CC1)Cc1ccccc1F	-2.89
Cc1cc(C)c2c(=O)cc(C(=O)Nc3c(C)n(C)n(-c4ccccc4)c3=O)oc2c1	-0.49
Cn1c(C(=O)NCc2ccc(F)cc2)cc2c(=O)n(C)c3ccccc3c21	-0.77
Cn1cc(CC(=O)Nc2cnn3c2NCCC3)c2ccccc21	-0.08
Cc1cc(NS(=O)(=O)c2ccc(NC(=O)c3ccccc3C)cc2)nc(C)n1	-0.51
CCCCOC(=O)/C(C#N)=C/c1ccc(-c2ccc(Br)cc2)o1	0.5
Cc1ccc(Cn2c(=O)n(CCCCC(=O)NCCc3ccc(Cl)cc3)c(=O)c3ccccc32)cc1	-0.87
Cc1ccc(C(=O)NC2CC(c3nnc(CO)n3C)C2)c(O)c1 (stereo not drawn)	-0.13
COc1ccc(C2=Nc3ccc(C)cc3NC(c3ccc(Cl)cc3)=N2)cc1	-2.37
O=C(NCC12CC3CC(CC(C3)C1)C2)c1cc2nc(-c3ccc(Cl)cc3)cc(C(F)(F)F)n2n1	-2.35
CCCN(Cc1nccn1C)C(=O)Nc1cc(C)c(F)cc1Cl	1.48
COc1ccc(N(C(=O)c2ccccc2F)S(=O)(=O)c2ccc3c(c2)n(C)c(=O)n3C)cc1	-0.1
CCN(CC)C(=O)c1ccc2c(c1)N(Cc1ccccc1F)C(=O)c1ccccc1S2=O (stereo not drawn)	1.02
COc1ccc2c(c1)c(=O)c(C(=O)c1ccc(F)cc1)cn2CC(=O)Nc1ccc2c(c1)OCO2	-0.1
Cc1cccc(N2CCN(Cc3cc(=O)oc4cc(C)ccc34)CC2C)c1 (stereo not drawn)	-1.71
Fc1ccc2c(c1)NC(c1ccncc1)=NC(c1cccs1)=N2	-1.2
COCCn1cc(C(=O)NCCCOC(C)C)c2c3ccccc3n(C)c2c1=O	-0.06
CCN(CC)C(=O)Cn1c(=O)n(CCCCCC(=O)NCc2ccccc2)c(=O)c2sccc21	-1.28
O=S(=O)(Cc1cccc(Cl)c1)NCCCCCN1CCOCC1	-1.79
COc1ccc(CCNc2nc(-c3ccc(Cl)cc3)cc(C(F)(F)F)n2)cc1OC	-1.06
COc1ccc(CCNC(=O)Cc2c(C)c3c(cc(C)c4c(C)coc43)oc2=O)cc1OC	-2.17
CO[C@@]12CCC(Oc3ccccn3)CC1N(C(=O)c1ccccn1)CC2 (stereo partly drawn)	-0.41

A draw from above in order of SMILES length, lowest first:
SMILES	Bm FixLJ act
Cn1cc(CC(=O)Nc2cnn3c2NCCC3)c2ccccc21	-0.08
CCCCOC(=O)/C(C#N)=C/c1ccc(-c2ccc(Br)cc2)o1	0.5
CCCS(=O)(=O)c1c(Nc2ccccc2C)sc(C(=O)c2ccccc2)c1N	0.44
CCOc1ccc(-n2c(-c3ccc(Br)cc3)cc3c2CC(C)(C)CC3=O)cc1	0.34
O=C(NCC12CC3CC(CC(C3)C1)C2)c1cc2nc(-c3ccc(Cl)cc3)cc(C(F)(F)F)n2n1	-2.35

(further entries)
SMILES	Bm FixLJ act
CCOc1ccc(N(C(=O)c2ccc(OC)cc2)S(=O)(=O)c2ccc3c(c2)n(C)c(=O)n3C)cc1	1.35
CCOc1ccc(Nc2nc3ccccc3c3nnc(CC)n23)cc1	-0.38
Cc1cccc2ncc(C(=O)N3CC(CO)CC(CN(C)C)C3)c(=O)n12 (stereo not drawn)	-0.42
O=C(c1ccc(Cl)cc1)n1nc(-c2cccnc2)nc1NCc1ccc(F)cc1	-2.23
CCOc1cc(CN(C)Cc2cn[nH]c2C)c(Cl)cc1OC	-1.18
Cn1ccnc1CN(CCO)Cc1cc(=O)c2cc(Cl)ccc2[nH]1	-1.01
Cc1[nH]c2ccccc2c1SCCNC(=O)c1ccccc1F	1.04
O=C1c2[nH]nc(-c3ccccc3O)c2C(c2ccc(Cl)cc2)N1Cc1ccco1 (stereo not drawn)	-0.02
COC(=O)c1cc(Cl)ccc1NC(=O)Cn1c(C)cc(C)c(C#N)c1=O	0.55
CCC(=O)Nc1cc2nn(-c3ccc(C)cc3)nc2cc1C	-0.9
CCCCN(C)CCCNC(=O)c1cc(-c2ccc(Br)s2)nc2ccccc12	-1.06
CCc1ccccc1NC(=O)Cn1nc(C(F)(F)F)c2c1CCCC2	-2.04
CNC(=O)CCCNC(=O)c1cccc(-c2c(C)cccc2Cl)c1	0.9
COc1cc(OC)c(NC(=O)c2ccc3c(Cl)c4c(nc3c2)CCCC4)cc1Cl	-0.38
CCN(C(=O)c1csc2nc(-c3cccc(F)c3)cn12)C1CCCCC1O (stereo not drawn)	0.53
CCc1oc(C(=O)Nc2cccc(-c3nncn3C)c2C)cc1CN1CCCC1	-0.18
CCCCN(C)CCCNC(=O)c1cn(CC)c2ccc(S(=O)(=O)N3CCc4ccccc4C3)cc2c1=O	-0.24
COc1cc2c(=O)n(Cc3ccco3)c(=O)n(CC(=O)Nc3ccc(F)cc3)c2cc1OC	-0.58
CNc1ncc(C(=O)N2CCC3(CC2)OCCc2cc(OC)c(OC)cc23)cn1	-0.42
Cc1ccc2nc(CCNS(=O)(=O)c3cc(-c4cc(C)[nH]n4)sc3C)[nH]c2c1	-1.59
COCCCNC(=O)c1ccc(Cn2c(=O)c3ccccc3n(Cc3c(C)cc(C)cc3C)c2=O)cc1	-1.89
O=c1[nH]c(=O)n(C2CCCO2)cc1F (stereo not drawn)	-1.37
Cc1ccc(Cn2c(=O)n(Cc3ccc(Cl)cc3)c(=O)c3cccnc32)cc1	0.14
CC(C)(C)c1ccc(C(=O)Nc2nc3nc(-c4ccccc4)cc(=O)n3[nH]2)cc1	1.39
Cc1ccc(S(=O)(=O)NCCSc2nnnn2-c2ccc(Cl)c(C(=O)O)c2)cc1	-0.88
(list continues)
SMILES	Bm FixLJ act
COC(=O)CNC(c1ccccc1)c1cc(Br)ccc1NC(=O)c1ccc(Cl)cc1 (stereo not drawn)	-0.29
NC(=O)c1nc(CNC(=O)Nc2cccc(C(=O)N3CCCCC3)c2)no1	-0.23
Cc1ccc(C2=Nc3ccccc3NC(c3ccncc3)=N2)cc1	-1.24
COc1ccc(CN2COc3ccc4c(-c5ccccc5)cc(=O)oc4c3C2)cc1OC	0.71
O=C(Cn1ncc2c3ccccc3n(Cc3ccccc3F)c2c1=O)NC1CCCCCC1	-0.7
CCn1nc(CC(C)C)cc1C(=O)NCCCN1CCOCC1	-1.55
CCOc1ccc(NC(=O)C2CCCN(c3nnc(-n4c(C)ccc4C)s3)C2)cc1 (stereo not drawn)	-0.09
Cc1[nH]c(=O)c(C(=O)NCc2cc(C(C)C)no2)c(C)c1Cl	-0.51
CCc1cc2c(cc3c(=O)n(CC(=O)NC(C)C)nc(CC)n32)s1	0.25
CC(c1cc(-c2ccccc2)n[nH]1)N(C)Cc1nc2c(cnn2C)c(=O)[nH]1 (stereo not drawn)	-1.52
Cc1nn(CCNC(=O)CN2CCOC2=O)c(C)c1Cl	0.04
CC(C)c1ccc2oc(-c3ccc(Cl)c(NC(=O)Cc4ccccc4)c3)nc2c1	-0.11
CCc1ccc2oc(C(=O)Nc3cccc(Cl)c3C)cc(=O)c2c1	-2.13
COc1cc(OC)cc(-c2nccn2-c2c(C)nn(C3CCS(=O)(=O)C3)c2C)c1 (stereo not drawn)	-2.5
CCCCn1c(=O)n(-c2ccc(Br)cc2F)c(=O)c2c3c(sc21)CN(C(C)=O)CC3	-1.39
Cc1ccccc1NC(=O)c1c(C)oc2ccc(O)c(CN3CCCC(C)C3)c12 (stereo not drawn)	0.18
CCC(=O)N1CCc2cc(S(=O)(=O)NCCC(=O)Nc3cccc(SC)c3)ccc21	-1.33
CCCCS(=O)(=O)N1CCC2(CC1)OCCc1cc(OC)ccc12	1.39
CC1=C(C)C(=O)C(CCCCC#CCCCC#CCO)=C(C)C1=O	-0.39
Clc1ccc(-c2nc3ccccn3c2Nc2ccc3c(c2)OCCO3)s1	1.96
Cc1cn2cc(C(=O)NCC3CCCN(c4ccccn4)C3)ccc2n1 (stereo not drawn)	-2.12
O=C(OCc1ccccc1Cl)c1ccc(-c2nnn(Cc3ccccc3)n2)cc1	-2.33
CCOC(=O)c1[nH]c2ccccc2c1NC(=O)c1ccc(OCC)cc1	-0.1
Cc1ccc2oc(=O)c3cnn(CC(=O)N4CCN(c5ccccc5)CC4)c3c2c1	-0.53
CCCNC(=O)c1ccc(C)c(NC(=O)NCc2cncn2CC)c1	0.38
(continued)
SMILES	Bm FixLJ act
CCOc1ccc(CCNC(=O)Cn2c(-c3cccs3)cc3cc(F)ccc32)cc1OCC	-0.34
CCC(=O)Oc1c(Sc2ccc(Cl)cc2)c(C)nn1C(C)(C)C	1.07
COc1ccc(CCNC(=O)CCCCn2c(=O)c3ccccc3n(CC(=O)Nc3c(C)cccc3C)c2=O)cc1OC	-1.88
Nc1nnc(SCC(=O)Nc2ccccc2)s1	-0.64
COc1ccc(C(=O)NCc2nnc(SCC(=O)Nc3ccccc3)n2-c2ccccc2)cc1	0.07
CCCS(=O)(=O)c1ncc(Cl)c(C(=O)N(Cc2ccccc2)Cc2ccco2)n1	-1.56
O=C(NCC1CCN(Cc2cccc(Cl)c2)CC1)Nc1ccc(F)c(Cl)c1	0.07
O=C(c1cccc(F)c1)N1CCCC(c2nccn2Cc2ccncc2)C1 (stereo not drawn)	-0.11
N#C/C(=C\c1ccccc1)c1nc(-c2cc3cc(Br)ccc3oc2=O)cs1	-0.05
COc1ccc(NC(=O)c2sc3nc(C)c(C(=O)Nc4ccc(C)cc4C)c(-c4ccccc4Cl)c3c2N)cc1	1.5
COc1ccc2oc(-c3ccc(C)c(NC(=O)COc4cc(C)cc(C)c4)c3)nc2c1	-0.2
CO[C@@]12CCC(OCC(=O)O)CC1N(Cc1cccs1)CC2 (stereo partly drawn)	0.2
O=C(O)c1cn(C2CC2)c2cc(N3CCNCC3)c(F)cc2c1=O	-3.02&-3.67
CCOc1ccc(NC(=O)CC2C(=O)N(c3ccc(OC)cc3)C(=O)N2CCC2=CCCCC2)cc1 (stereo not drawn)	-1.21
CO[C@H]1C[C@H](O[C@H]2[C@H](C)[C@@H](O[C@@H]3O[C@H](C)C[C@H](N(C)C)[C@H]3OC(C)=O)[C@@H](C)C[C@@]3(CO3)C(=O)[C@H](C)[C@@H](OC(C)=O)[C@@H](C)[C@@H](C)OC(=O)[C@@H]2C)O[C@@H](C)[C@@H]1OC(C)=O	-1.58
COc1ccc(NC(=O)CSc2cn(CCNC(=O)c3c(F)cccc3F)c3ccccc23)cc1	-0.2
COc1ccc(CCNc2nc3cc(OC)c(OC)cc3c3nc(-c4ccccc4)nn23)cc1OC	-1.42
Cc1c(CNCc2ccc(OC(C)C)cc2)c(C(=O)O)c(C)n1Cc1ccc(Cl)cc1	-0.39
CCCS(=O)(=O)c1nc(S(=O)(=O)c2ccc(C)cc2)c(NCC(C)C)s1	-0.44
COc1cccc2c1cc1c(=O)n(CC(=O)N3CCN(c4ccccc4)CC3)nc(C)n12	-1.18
O=C(CSCC1CC1)NC1CCCN(Cc2cccc(O)c2)C1 (stereo not drawn)	-0.26
O=C(CC1C(=O)N(c2ccccc2)C(=O)N1Cc1ccc2c(c1)OCO2)Nc1ccccc1 (stereo not drawn)	-1.38
COc1ccc(-n2c(-c3cccc(F)c3)nc3c(cnn3-c3ccc(C)cc3)c2=O)cc1	-0.76
CO[C@H]1/C=C/O[C@@]2(C)Oc3c(C)c(O)c4c(O)c(c5c(nc6cc(C)ccn65)c4c3C2=O)NC(=O)/C(C)=C\C=C\[C@H](C)[C@H](O)[C@@H](C)C(O)[C@@H](C)[C@H](OC(C)=O)[C@@H]1C (stereo partly drawn)	-6.47
Cc1ccc(NC(=O)C(=O)NCc2ccc(Cl)cc2)cc1	-1.23

Molecules above with a tert-butyl group:
SMILES	Bm FixLJ act
CC(C)(C)c1ccc(C(=O)Nc2nc3nc(-c4ccccc4)cc(=O)n3[nH]2)cc1	1.39
CCC(=O)Oc1c(Sc2ccc(Cl)cc2)c(C)nn1C(C)(C)C	1.07

More entries:
SMILES	Bm FixLJ act
COc1ccccc1CN1COc2ccc3c(oc(=O)c4ccccc43)c2C1	-1.26
COc1cccc(CNC(=O)c2cc(-c3cccs3)nc3ccccc23)c1	-1.32
Cc1cc(CNc2nc(CCc3ccccc3)nc3c2cnn3C)n[nH]1	0.04
O=C(Nc1ccccc1)c1cc2c(-c3ccccc3)nn(-c3ccccc3)c2s1	-2.57
Cc1nc(SCc2cccc(Cl)c2)nc2c1CCCC2	3.02*
CCC(NS(=O)(=O)c1ccc(OC)c(C(=O)NC)c1)c1nc(C)c(C)s1 (stereo not drawn)	-2.93
CC(=O)N1CCc2cc(Br)cc(S(=O)(=O)CCC(=O)Nc3ccc(C)cc3Cl)c21	0.05
CCc1nn(CC(=O)NCC(C)c2ccccc2)c(=O)c2cc3c(OC)cccc3n12 (stereo not drawn)	0.07
Cc1ncn(CCNC(=O)C2CCCN2S(C)(=O)=O)c1C (stereo not drawn)	0.54
O=C1CC(c2ccccc2)Cc2[nH]c(=O)c(-c3nc(-c4ccc(F)cc4)cs3)cc21 (stereo not drawn)	1.98
CCN(Cc1noc(CC(C)C)n1)C(=O)Cc1nc(C)sc1C	-0.78
Cc1ccccc1Cn1c2ccccc2c2cnn(CC(=O)NCCc3ccc(Cl)cc3)c(=O)c21	-0.8
COc1ccccc1CCNC(=O)CN1CC2CCC(C1)C2N (stereo not drawn)	1

A second format for some results above.
COc1ccccc1CN1COc2ccc3c(oc(=O)c4ccccc43)c2C1
  Bm FixLJ act = -1.26
CC(=O)N1CCc2cc(Br)cc(S(=O)(=O)CCC(=O)Nc3ccc(C)cc3Cl)c21
  Bm FixLJ act = 0.05
CCc1nn(CC(=O)NCC(C)c2ccccc2)c(=O)c2cc3c(OC)cccc3n12 (stereo not drawn)
  Bm FixLJ act = 0.07
CCC(NS(=O)(=O)c1ccc(OC)c(C(=O)NC)c1)c1nc(C)c(C)s1 (stereo not drawn)
  Bm FixLJ act = -2.93

Source: PubChem
